High-throughput results deposited in PubChem by several laboratories.
PrP UTR inh – inhibition of PrP 5' UTR reporter expression. cell-based PrP 5' UTR mRNA reporter, plate reader. inhibition, % (concentration not given with the values). actives 0.35% (n = 340,000);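 active = every replicate at 50% or more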;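 note: 0 = median of the neutral control wells; tested in H4 reporter cells; numbers are from one replicate; inactives centre near -14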
ugtP null kill – compounds lethal to S. aureus RN4220 ugtP deletion mutant; OD600 growth, 16 h; some inactives read as strong as hits; growth inhibition, % (concentration not given with the values); actives 0.54% (n = 330,000); AID 1259309;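 active = z-score under -3 and OD600 up to 0.15 on both plates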;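 note: plate controls were untreated wells for no effect and antibiotic for full effect; wells of about 80 µL received 100 nL stock; the first replicate is given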
Mtb hypoxia inh – Mtb hypoxia fluorescent reporter inhibition | M. tuberculosis hypoxia-regulated fluorescent reporter, fluorescence | fluorescence inhibition, % (concentration not given with the values) | actives 0.1% (n = 300,000) | AID 1159583;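 active = 35 to 45% if threefold the growth effect, above 45% if 1.5-fold the growth effect; inactive = the rest, general growth blockers included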;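 note: wells of about 50 µL received 100 nL stock; 0% = vehicle wells and 100% = reference inhibitor wells; whole bacteria with a GFP reporter of the hypoxia response; strong numbers were not always called active; many hits fall short of the cut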
Sa RN4220 lethal – S. aureus RN4220 growth inhibition. OD600, 16 h. inhibition, % (concentration not given with the values). actives 0.33% (n = 330,000). AID 1259311;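 active = z-score of -3 or lower and OD600 up to 0.18 on both plates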;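 note: plate controls were untreated cells for no effect and reference antibiotic for full effect; stock transfer was 100 nL into about 80 µL; one replicate is shown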
BJeLR viability – kills HRASV12-expressing BJeLR cells; AID 1554; actives 0.17% (n = 300,000); inhibition, % (concentration not given with the values); BJeLR (HRASV12) viability, CellTiter-Glo ATP luminescence, 48 h; reference of the scale not given here;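 active = replicate mean above 50%; inconclusive = above 50% but judged a plate artefact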;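 note: 50 nL library stock added to about 25 µL; numbers are from one replicate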
Autofluor counter – flagged as autofluorescent in microsphere protease counterscreen. compound autofluorescence counterscreen, microsphere flow cytometry; hits give high values. fluorescence intensity (concentration not given with the values). actives 3.1% (n = 360,000);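 active = at least 3 SD above the mean of all compounds, about 16000 in these data; inconclusive = too few beads counted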;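 note: 100 nL of 1 mM stock went into each well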
Mtb hypoxia inh growth – further read-out of Mtb hypoxia inh, marked with its call; growth inhibition, %; measured here: M. tuberculosis growth (absorbance);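 0% = vehicle and 100% = reference antibiotic; read after six days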
Starred values were filed as active, the others as inactive; ? = inconclusive; nt = no result given. The order is random; overall some 4% were active at least once.

Results follow in this order: Mtb hypoxia inh growth	Mtb hypoxia inh	Sa RN4220 lethal	ugtP null kill	PrP UTR inh	Autofluor counter	BJeLR viability
CCOC(=O)C1=C(N)Oc2c(oc(CO)cc2=O)C1c1ccc(F)cc1 (centres undefined)
  3	8	2.5	-14	-5	3540	-5
Cc1cccc(NC(=O)C2=C(O)c3ccccc3N(C)S2(=O)=O)c1
  11	10	24	-2	-10	3293	2
CCN1CCN(c2cc(C)nc(-c3ccccc3O)n2)CC1
  1	10	5.8	3	-2	4586	6
O=C1CC(c2cccs2)c2ccc3ccccc3c2N1 (centres undefined)
  2	-4	2.0	4	-40	4486	-2
CN(CCN1CCOCC1)C(=O)c1cc(COc2ccc(F)c(F)c2)on1
  -2	-1	0.7	3	-19	nt	3
CCCNC(=O)COC(=O)c1cc(C)nc2ccccc12
  9	-2	-2.6	5	-6	3326	5
COc1ccc2ccccc2c1/C=N/NC(=O)c1nnn(-c2nonc2N)c1CN(C)C
  nt	nt	nt	nt	5	4232	-3
CC(CNS(=O)(=O)c1ccccc1)(c1ccccc1)N1CCCCC1 (centres undefined)
  -9	5	2.5	6	-25	nt	-3
CCCCNC(=O)C1CC=CC2CCN(C3CC3)C(=O)C21 (centres undefined)
  6	14	5.1	2	nt	nt	nt
NC(=O)C1CCN(C2CC(=O)N(Cc3ccc(N4CCCC4=O)cc3)C2=O)CC1 (centres undefined)
  1	-5	0.9	4	-13	7912	3
COC(=O)c1ccc(NC(=O)CSc2nc3ccccc3c(=O)[nH]2)cc1
  5	8	5.7	-3	-14	20547*	3
Cc1c(NC(=O)CN2C(=O)c3ccccc3S2(=O)=O)c(=O)n(-c2ccccc2)n1C
  nt	nt	4.0	-5	-17	4478	nt
Cn1c(N)c(C(=O)COC(=O)C23CC4CC(CC(C4)C2)C3)c(=O)n(C)c1=O
  5	3	8.1	-11	-6	?	-1
Cc1ccc(NC(=O)C2CCN(S(=O)(=O)c3ccc4c(c3)NC(=O)CO4)CC2)cc1C
  8	-3	3.0	5	8	6239	-8
COc1ccc(NC(=O)C2CC(=O)N/C(=N/N=C/c3ccccc3)S2)cc1 (centres undefined)
  nt	nt	nt	nt	-29	5921	-7
COc1ccc(S(=O)(=O)NCC2CCCO2)cc1NC(=O)c1ccc(Cl)cc1 (centres undefined)
  -2	5	11	8	-14	4466	5
O=C(CCCCl)NC(=S)Nc1ccc(CN2CCOCC2)cc1
  16	17	5.3	21	-8	nt	-10
Cc1ccc(N(CC(=O)Nc2ccc(C)cn2)S(=O)(=O)c2c(C)nn(C)c2C)cc1
  3	7	3.1	11	-26	4192	3
O=C(Nc1cccc(C(=O)O)c1)/C(=C\c1ccco1)NC(=O)c1ccccc1
  -10	2	-0.3	10	-4	3645	-8
CCNC(=O)c1cc(S(=O)(=O)N2CCSCC2)ccc1OC
  13	-3	7.1	10	-14	3630	5
CCN1C(Nc2ccccc2)=NC[C@@H]1C
  nt	nt	nt	nt	-15	4285	-1
CC(C)CCNc1ncnc2c1nnn2Cc1ccccc1
  nt	nt	nt	nt	-23	3402	1
CC(=O)N1CCN(CC(=O)Nc2cccc(S(=O)(=O)N3CCCCCC3)c2)CC1
  6	6	4.8	6	-13	3841	10
CCC(=O)c1ccc(OCC(=O)NCC2(N3CCCCC3)CCCCC2)cc1
  2	1	2.4	11	11	8490	-3
CCOC(=O)c1c(NC(=S)NC(=O)c2ccco2)sc2c1CCCC2
  6	3	1.8	5	-13	3688	-9
COC(=O)CN1C(=O)COc2ccc(S(=O)(=O)NCc3ccccc3)cc21
  1	-2	3.6	0	-7	5241	5
CC(=O)C1=C(O)C(=O)N(c2ccc(O)cc2)C1c1ccccc1Cl (centres undefined)
  8	3	-3.2	-1	-13	3810	10
Cc1ccc2c(=O)c(CN3CCCCCC3)c(C)[nH]c2c1C
  8	3	0.8	7	-6	7258	-12
COc1ccc(C(=O)NCC2CCCCC2)cc1S(=O)(=O)N1CCOCC1
  6	1	5.6	7	-12	3599	nt
O=C(N/C(=C\c1ccco1)C(=O)N1CCOCC1)c1ccccc1Cl
  nt	nt	nt	nt	-19	3692	-4

Ordered by heavy-atom count (low to high): part of the list above.
Results follow in this order: Mtb hypoxia inh growth	Mtb hypoxia inh	Sa RN4220 lethal	ugtP null kill	PrP UTR inh	Autofluor counter	BJeLR viability
CCN1C(Nc2ccccc2)=NC[C@@H]1C
  nt	nt	nt	nt	-15	4285	-1
COC(=O)CN1C(=O)COc2ccc(S(=O)(=O)NCc3ccccc3)cc21
  1	-2	3.6	0	-7	5241	5
CCC(=O)c1ccc(OCC(=O)NCC2(N3CCCCC3)CCCCC2)cc1
  2	1	2.4	11	11	8490	-3
CC(=O)N1CCN(CC(=O)Nc2cccc(S(=O)(=O)N3CCCCCC3)c2)CC1
  6	6	4.8	6	-13	3841	10

Some values from the list.
Mtb hypoxia inh growth result of `O=C(CCCCl)NC(=S)Nc1ccc(CN2CCOCC2)cc1` is entered as 16
Mtb hypoxia inh growth result of `Cc1ccc(N(CC(=O)Nc2ccc(C)cn2)S(=O)(=O)c2c(C)nn(C)c2C)cc1` is entered as 3
Mtb hypoxia inh result of `CC(=O)N1CCN(CC(=O)Nc2cccc(S(=O)(=O)N3CCCCCC3)c2)CC1` is entered as 6
PrP UTR inh result of `CCNC(=O)c1cc(S(=O)(=O)N2CCSCC2)ccc1OC` is entered as -14
Mtb hypoxia inh growth result of `COc1ccc(S(=O)(=O)NCC2CCCO2)cc1NC(=O)c1ccc(Cl)cc1` (centres undefined) is entered as -2

Next section.
Results follow in this order: Mtb hypoxia inh growth	Mtb hypoxia inh	Sa RN4220 lethal	ugtP null kill	PrP UTR inh	Autofluor counter	BJeLR viability
Clc1ccccc1CN(Cc1ccccc1)C(c1cccs1)c1nnnn1C1CCCC1 (centres undefined)
  nt	nt	-3.8	2	-13	2840	18
COc1ccc(NC(=O)CSc2nc(C(C)C)nc3c2c(=O)n(C)c(=O)n3C)c(OC)c1
  10	5	2.8	-2	4	6875	9
COc1ccc(CCNC(=O)c2c(C)nn(CC(C)C)c2Cl)cc1OC
  -3	5	0.4	3	-12	5563	-2
Cc1cc(C(=O)CCC(=O)Nc2ncccc2O)c(C)s1
  1	-5	2.0	-2	-11	5468	4
O=C(CCc1ccccc1)NC(=S)NCc1ccco1
  4	5	6.2	0	-61	3882	-4
CCN(CC)c1cc(Oc2ccccc2)ncn1
  13	-3	3.0	0	-26	9184	-3
CCc1ccccc1NC(=O)CN(C)C(=O)COC(=O)c1c(Cl)cccc1Cl
  -5	7	6.2	10	-7	4614	nt
O=c1[nH]c2ccc(NC(=S)Nc3ccccc3Cl)cc2[nH]1
  nt	nt	1.9	0	-12	2303	-1
CCOC(=O)c1ccc(NC(=O)Cn2cnc3cc(C)c(C)cc32)cc1
  2	-13	-5.6	6	-22	6084	-6
N#Cc1ccc(N2Cc3ccccc3C2=NC(=O)Nc2ccc(Cl)cc2)cc1
  -3	0	-7.3	5	nt	nt	nt
O=C(COC(=O)CCC(=O)c1cccs1)NCc1ccco1
  3	2	-19	1	-14	2839	nt
COc1ccc(CCCc2nnc(SCC(=O)Nc3nccs3)n2C)cc1C
  -1	0	3.8	6	1	3007	2
COc1ccc(CNC(=O)CCC(=O)N2C[C@H]3C[C@H](C2)c2cccc(=O)n2C3)cc1OC
  nt	nt	5.2	9	-7	3946	-9
COc1cccc(C(C(=O)NC2CCCCC2)N(CC2CCCO2)C(=O)CNC(=O)c2ccco2)c1 (centres undefined)
  -6	4	-0.9	1	-10	2887	-7
COc1ccc(/C=N/NC(=O)C(N)=O)c(OC)c1OC
  nt	nt	nt	nt	-18	2429	-2
CC(/C=C/C=C/c1ccccc1)=NNC(=O)c1cccnc1
  13	1	2.5	3	nt	nt	nt
Cc1c(C(N)=O)sc2ncn(CCOc3ccccc3)c(=O)c12
  18	6	8.3	0	-23	4036	5
C=CCn1c(SCC(=O)Nc2ccc3c(c2)CCC3)nnc1-c1cccs1
  nt	nt	18	-4	-29	4527	-11
Cc1cccc(-n2c(-c3ccco3)n[nH]c2=S)c1
  4	2	4.0	2	-9	2411	-6
CC(C)Cc1ccc(C(C)C(=O)Nc2ccc(O)cc2)cc1 (centres undefined)
  -1	11	10.0	14	-3	2520	2
CC(C)Nc1nc(NC(C)C)nc(N(C)N)n1
  -2	0	0.8	6	-4	4230	4
Cc1ccc2c(c1)N(C(=O)CCC(=O)N1CCc3ccccc3C1)CCO2
  8	5	1.7	-3	-14	3065	-10
COc1ccccc1-n1c(Cc2ccccc2)nc2ccccc2c1=O
  8	3	5.3	25	-24	4234	3
C=CCc1cccc2cc(C(=O)NNC(=O)c3ccncc3)c(=O)oc12
  5	9	1.1	3	-26	4450	0
CCCCCN(C(=O)CCC(=O)OCC(=O)N1CCCCC1)c1c(N)n(CCCC)c(=O)[nH]c1=O
  14	10	2.6	4	-12	5279	-9
COc1ccc(NC(=O)c2sc3ncn(CC(=O)N4CCN(c5ccccn5)CC4)c(=O)c3c2C)c(OC)c1
  -2	-1	1.5	5	-8	5526	-10
CCCN1C(=O)/C(=C/c2cc(C)n(C)c2C)SC1=Nc1ccc(OCC)cc1
  nt	nt	nt	nt	2	3171	-5
O=C(O)CCCC1(C(=O)O)CCCC1
  10	10	3.6	1	-22	4144	nt
O=[N+]([O-])c1ccccc1S(=O)(=O)N1CCN(C2CCCC2)CC1
  -3	16	1.4	5	-13	?	-7
CCOC(=O)N1CCC(N2Cc3cccc(C(=O)Nc4cc(F)ccc4F)c3C2=O)CC1
  10	2	-5.5	-4	-20	5856	-1

Quoted at random: two compounds from above, in no set order.
Results follow in this order: Mtb hypoxia inh growth	Mtb hypoxia inh	Sa RN4220 lethal	ugtP null kill	PrP UTR inh	Autofluor counter	BJeLR viability
C=CCn1c(SCC(=O)Nc2ccc3c(c2)CCC3)nnc1-c1cccs1
  nt	nt	18	-4	-29	4527	-11
COc1ccccc1-n1c(Cc2ccccc2)nc2ccccc2c1=O
  8	3	5.3	25	-24	4234	3

Next compounds:
Results follow in this order: Mtb hypoxia inh growth	Mtb hypoxia inh	Sa RN4220 lethal	ugtP null kill	PrP UTR inh	Autofluor counter	BJeLR viability
COc1ccc(CN(C)C(=O)c2cc(S(=O)(=O)N3CCOCC3)ccc2N2CCCC2)cc1
  -4	1	6.3	11	-14	4430	5
Cn1ncc([N+](=O)[O-])c1C(=O)Nc1ccccc1C(=O)O
  2	8	3.8	4	-23	4029	-2
Cc1cc2cc(CNC(=S)Nc3ccc(OC(F)(F)F)cc3)ccc2[nH]1
  6	7	1.3	5	-12	4171	-12
N#CC(=Cc1ccc(Cl)cc1)c1n[nH]c(Cn2cncn2)n1
  -4	-4	5.7	-4	nt	nt	nt
C[C@H](NC(=O)C1CCN(C(=O)[C@H](Cc2ccccc2)NC(=O)OC(C)(C)C)CC1)C(=O)O
  -2	9	2.5	4	nt	3289	-8
Cc1cc(=O)oc2cc(OC(C)C(=O)NCCCn3ccnc3)ccc12 (centres undefined)
  -4	7	2.5	5	-1	4495	-1
CN(Cc1ccccc1)C(=O)COC(=O)c1ccc(Br)o1
  5	1	0.5	0	-6	3044	nt
Nc1ccc(Oc2ccccc2F)nc1
  8	3	0.6	2	-23	nt	-1
CC(=O)c1ccc(NC(=O)CN2CCOCC2)cc1
  6	4	3.3	4	-7	3243	-1
C/C=C\C=C/C(=O)Nc1cccc(C2=NOC3(C2)C[C@@H](C(N)=O)N(C(=O)/C=C/C=C\C)C3)c1 (some centres undefined)
  nt	nt	nt	nt	-3	4103	1
COC(=O)c1ccccc1NC(=O)C1CCN(C(=O)c2ccc(OC)cc2)CC1
  0	0	1.1	2	2	3130	9
O=S(=O)(c1ccccc1)N1CCN(c2ncnc3sc(-c4ccccc4)cc23)CC1
  -7	-10	-5.9	2	-4	3827	-14
Cc1ccc2nc(CNC(=O)C3CCC(=O)N(Cc4ccccc4F)C3)cn2c1 (centres undefined)
  11	0	-5.2	-9	-15	4273	-4
O=c1c(C(c2ccc(F)cc2)c2c(O)nc3n(c2=O)CCS3)c(O)nc2n1CCS2
  9	6	1.5	6	-50	4410	4
C[C@@H]1C(c2ccccc2)=NN(c2ccccc2)[C@H]1C(=O)N1CCOC1=O
  0	3	0.4	5	-65	3404	nt
Cc1ccc(S(=O)(=O)N2CCN(Cc3cc(=O)n4ccccc4n3)CC2)cc1C
  -3	-5	0.0	1	-12	3760	nt
COc1ccc(COc2ccc3c(C)cc(=O)oc3c2)cc1
  -4	6	7.2	5	-42	3320	-6
